TRPML1 ag: activates the human TRPML1 channel; Q9GZU1; TRPML1-expressing cells, Ca2+ dye fluorescence, FDSS; host cell line not named in the record; reference of the full effect not given here; activation, % (test concentration not listed); 410,000 tested, 0.12% active; AID 624414; in the data active = activation above about 50%; inconclusive = about 30% to 50%; inactive = below about 30%; note: 0% is about no effect; the text of the record puts the active cut at 80%
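Kinetic FDSS Ca2+ read in Tet-induced TRPML1-DL cells (ABD Ca8 dye plus quencher, 45-90 min RT loading): baseline, then compound, then 110 s agonist window; EC80 agonist 54-4 at 4uM final added afterwards for a 110 s antagonist window.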
ClpP mod: qHTS Assay for Activators of ClpP; ATP-dependent Clp protease proteolytic subunit (Bacillus subtilis (strain 168)), P80244; purified B. subtilis ClpP, FRET peptide cleavage, 20 min; Potency, µM (top dose mostly 57.5 µM), for the others: at the highest dose activity change, negative = active; 340,000 tested, 1.9% active; AID 651965, 2013; active = well fitted falling curve with a large enough effect; inconclusive = small, poorly fitted or top-dose-only effect; inactive = no such curve, though single readings can be large or run the other way; note: potency is the fitted concentration of half-maximal effect; the source files actives as falling curves though it sought activators and does not explain the sign; nearly all actives have a fitted effect of over 65% in size; many hits overshoot -100%
Target sequence (P80244 whole entry, looked up): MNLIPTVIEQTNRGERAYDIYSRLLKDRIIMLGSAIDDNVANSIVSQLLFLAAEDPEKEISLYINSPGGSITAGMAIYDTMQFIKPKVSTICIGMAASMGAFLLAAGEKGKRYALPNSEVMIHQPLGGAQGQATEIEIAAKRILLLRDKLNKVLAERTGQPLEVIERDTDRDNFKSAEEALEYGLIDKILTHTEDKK
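ClpP 10 microg/mL final, pH 8 Tris/KCl buffer with BSA, glycerol, Tween-20; compound pinned in; FRET-FV substrate; RT 20 min; Ex320/Em430; ΔFRET vs ADEP 5.8 microM, DMSO, no enzyme.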
PINK1 expr mod: changes PINK1 expression. PINK1 immunofluorescence, high-content cytometry, 24 h. Potency, µM (titrated, usually from 76.6 µM), inactives show at the highest dose activation (PINK1 increase), usual class: activators. 410,000 tested, 0.2% active; active = well fitted activation curve with a large enough effect; inconclusive = small, poorly fitted or top-dose-only effect; inactive = flat fitted curve, though single readings scatter; cell line not stated here;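 note: potency is the fitted concentration of half-maximal effect; % of control where 0% means no effect; nearly all actives have a fitted effect of over 65% in size; a mitochondrial uncoupler was the plate control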
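Fluorescence from anti-PINK1 antibody, together with nuclear and cell stains, was scanned on a laser-scanning cytometer. Before staining, stable-line cells were incubated 24 hours with compounds at 5 concentrations; primary antibody 12 h at 10 degrees C.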
Sfp inh: blocks B. subtilis Sfp PPTase activity; Q9F4F7; Biochemical Sfp PPTase activity, qHTS; Potency, µM, for inactives: max response, negative = inhibition, hits mostly inhibitors; 310,000 tested, 3.5% active; AID 1490; active = well fitted inhibition curve with a large enough effect; inconclusive = small, poorly fitted or top-dose-only effect, or another doubt; inactive = no such curve, though single readings can be large or run the other way;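 note: the enzyme is Sfp with the accession as filed and its product quenches rhodamine fluorescence; potency is the fitted concentration of half-maximal effect; 0% = enzyme reaction without inhibitor and -100% = no enzyme wells; top concentration of the series not given in the record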
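Sfp 15 nM + cpd, 15 min RT; start w/ rhodamine-CoA 5 uM, BHQ-2-YbbR 12.5 uM (final); 50 mM Hepes pH 7.6, 10 mM MgCl2, 0.01% NP-40, 0.01% BSA; read 525/598 nm at 0 and 30 min.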
Menin MLL FP FL: menin-MLL binding inhibition, fluorescein peptide; AID 1766; 290,000 tested, under 10 active; Fluorescence polarization, fluorescein-MLL peptide displacement from menin; FP activity change, % at 61.4 µM; inconclusive = falling polarisation curve, or a change in total fluorescence; inactive = total fluorescence flat and polarisation flat or rising; no compound was filed as active; the % refers to the polarisation; negative = inhibition;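 note: % of control where 0% means no effect; inhibitors lower the polarisation; unlabelled MLL peptide was the positive control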
TRPV1 PAM: human TRPV1 potentiation; 320,000 tested, 0.02% active; potentiation, % at 8.33 µM; Q8NER1; AID 540277; TRPV1-expressing cells, Fluo-8 calcium influx, capsaicin EC20 potentiation; host cell line not named in the record; control for the full effect not named in the record; active means potentiation above 80%; inconclusive means 30% to 80%; inactive means below 30%; note: 0% is about no effect
Target sequence (Q8NER1 whole entry, looked up): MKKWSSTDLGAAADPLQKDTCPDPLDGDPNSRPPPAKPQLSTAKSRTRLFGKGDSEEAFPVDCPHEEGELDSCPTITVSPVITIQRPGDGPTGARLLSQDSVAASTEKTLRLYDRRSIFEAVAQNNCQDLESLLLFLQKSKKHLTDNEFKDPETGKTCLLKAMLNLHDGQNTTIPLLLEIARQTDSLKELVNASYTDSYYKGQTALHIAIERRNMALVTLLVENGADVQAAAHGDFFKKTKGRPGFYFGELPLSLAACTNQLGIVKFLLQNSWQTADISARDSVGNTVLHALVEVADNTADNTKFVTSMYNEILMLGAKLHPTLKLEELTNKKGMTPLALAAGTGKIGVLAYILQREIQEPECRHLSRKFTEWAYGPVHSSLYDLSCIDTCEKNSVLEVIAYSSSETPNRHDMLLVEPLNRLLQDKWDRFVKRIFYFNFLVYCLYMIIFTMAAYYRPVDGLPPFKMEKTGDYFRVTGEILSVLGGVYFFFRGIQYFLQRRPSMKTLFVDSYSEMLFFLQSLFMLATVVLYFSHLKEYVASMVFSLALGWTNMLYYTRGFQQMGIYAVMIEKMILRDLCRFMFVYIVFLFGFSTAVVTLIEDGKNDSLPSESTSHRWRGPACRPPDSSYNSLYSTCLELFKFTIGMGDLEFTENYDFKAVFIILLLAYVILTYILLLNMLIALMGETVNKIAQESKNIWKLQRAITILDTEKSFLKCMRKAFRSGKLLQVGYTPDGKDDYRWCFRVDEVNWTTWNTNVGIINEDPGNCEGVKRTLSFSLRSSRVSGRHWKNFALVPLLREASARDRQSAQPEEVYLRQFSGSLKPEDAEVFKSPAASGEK
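Fluo-8 calcium influx in TRPV1-expressing cells, kinetic read (ex 480/em 520 nm). Compound added and read 3 min for agonist activity, followed by capsaicin at EC20 final and 2 min further read for enhancement.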
TRPML1 blocker: inhibitors of human TRPML1 channel; activity change, negative = inhibition, % (concentration not given with the values); TRPML1-inducible cells, Ca2+ dye fluorescence, FDSS; stronger effect = lower value; inhibition of EC80 agonist-evoked calcium signal; 390,000 tested, 0.02% active; AID 624415; in the data active means activity change below about -50%; inconclusive means about -30% to -50%; inactive means above about -30%;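 note: stimulus is agonist 54-4 at its EC80 concentration; % is set by controls: 0 for no effect and ±100 for the full control effect; compound concentration not given in the record; the text of the record puts the active cut at -80%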
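TRPML1-DL cells, Tet-induced overnight (~16 h, 37 °C) at 1,500 cells/well, were loaded with Ca8 no-wash dye plus quencher for 45-90 min at room temperature. Compounds were pinned during FDSS kinetic reading; agonist 54-4 at EC80 (4 uM final) then added.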
An asterisk follows results filed as active; u = inconclusive; x = no result given; & = joins results of further samples; [ ] = dose if it differs, or a comment.

SMILES	TRPML1 ag	ClpP mod	PINK1 expr mod	Sfp inh	Menin MLL FP FL	TRPV1 PAM	TRPML1 blocker
CCC(C)n1c(OC)nc2c1c(=O)n(C)c(=O)n2C (configuration not stated)	1.3	x	-0.2%	20.8%	0.3	-3.4	-0.7
CCc1nc(SCC(=O)N2CCCCC2)c2c(=O)n(C)c(=O)n(C)c2n1	0.3	-4.7%	0.3%	-29.4%	0.1	-5.0	-5.8
O=C(N=Nc1c(O)[nH]c2ccc([N+](=O)[O-])cc12)c1ccccc1[N+](=O)[O-]	-0.8	1.7%	0.9%	8.4%	-1.0	6.2	-6.6
Cc1ccc(Cn2c(CO)cnc2SCC(=O)Nc2ccc(C)c(Cl)c2)cc1	1.4	0.2%	1.9%	x	x	-3.4	20.2
NS(=O)(=O)c1ccc(CCNC(=O)CSc2nc3ccsc3c(=O)n2C2CC2)cc1	0.1	1.7%	1.9%	-10.9%	-1.6	-4.5	15.0
Cc1c(OCC(=O)N[C@@H](Cc2ccccc2)C(=O)O)ccc2c3c(c(=O)oc12)CCC3	x	4.5%	2.3%	8.2%	-6.8	4.1	x
O=C(Nc1ncccc1Cl)C1COc2ccccc2O1 (configuration not stated)	-0.5	1.4%	3.6%[38.3 µM]	11.0%	0.2	0.1	-13.8
COc1ccc(-c2nc3ccccn3c2Nc2ccccc2C)cc1	0.2	4.3%	-0.2%	x	x	x	x
C#CCOCCOCCOCCNc1nc(N2CCN(C(=O)[C@H]([C@@H](C)CC)n3cc([C@@H](N)Cc4ccc(O)cc4)nn3)CC2)nc(N2CCN(C(=O)[C@H](CCCCN)n3cc([C@@H](N)CO)nn3)CC2)n1	x	x	x	2.1%	2.6	-0.7	x
CCCCCc1ccc(-c2cn(CC3CCCCC3)nn2)cc1	0.3&-0.5	2.1%&0.5%	7.5%	23.7%	-4.7	14.3	-11.1
CC1(C)CC(NC(=O)c2ccncc2)CC(C)(C)N1O	0.4	0.2%	0.2%	-10.7%	2.9	9.2	-4.7
Cc1ccc(-c2nc(S(=O)(=O)c3ccc(C)cc3)c(N3CCN(c4ccccc4)CC3)o2)cc1	-0.3	-5.7%	0.4%	x	x	x	-18.9
O=C(O)c1cc(Cl)c(Cl)cc1C(=O)Nc1cccc2cccnc12	-0.5	2.0%	-1.3%	4.4%	-0.1	9.5	2.3
Cn1c(=O)c(C(=O)NNC(=O)c2ccccc2Br)c(O)c2ccccc21	0.6	x	12.4%	-0.1%	0.9	1.2	0.1
Cc1ccc(OC(C)C(=O)Nc2ccncc2)cc1C (configuration not stated)	1.4	0.9%	0.2%	6.8%	-0.2	6.9	0.7
Cc1ccc(C(=O)NC(C#N)=C(Cl)Cl)cc1	-0.7	x	-1.1%	-4.7%	-2.3	-2.0	16.3
CC(C)(C)c1cc(C2COC(=O)COCCOCC(=O)OCCOCCO2)cc(C(C)(C)C)c1O (configuration not stated)	1.2	3.3%	2.2%	x	x	x	-26.3
O=C(CN1C(=O)c2ccccc2C1=O)NCc1ccncc1	3.7	0.2%	7.6%[38.3 µM]	9.0%	-1.2	-3.6	-9.8
CCC(C)n1c(SCc2ccc([N+](=O)[O-])cc2)nc2ccsc2c1=O (configuration not stated)	0.8	-17.5%	0.2%	9.0%	7.5	6.6	32.6
CCOC(=O)N1CCN(c2cc(=O)n(-c3ccc(C)cc3)c(=O)[nH]2)CC1	-0.1	-2.1%	0.9%	-10.1%	1.8	u	9.7
CCOC(=O)c1ccc(NC(=O)c2c(O)c3ccccc3n(C)c2=O)cc1	x	x	x	-15.4%	2.3	10.3	x
O=[N+]([O-])c1ccc(C[n+]2cc(-c3ccccc3)n3c2CCCCC3)cc1	1.1	x	-0.9%	-14.2%	-2.2	-4.9	1.7
CCN(Cc1nc(-c2ccc(C)cc2)no1)C(=O)c1ccco1	0.0	x	1.5%	0.8%	-0.3	3.2	-4.9
OCCC1CN(Cc2cn[nH]c2C2CCCCC2)CCN1C1CCCC1 (configuration not stated)	-0.2	x	1.0%	7.2%	5.3	15.7	1.5
CN(Cc1ccccc1)C(NC(=O)c1ccco1)C(Cl)(Cl)Cl (configuration not stated)	0.9	-4.1%	-1.5%	14.8%	1.8	-1.3	16.3
C#CCOCCOCCOCCNc1nc(N2CCN(C(=O)Cn3cc(CCCN=C(N)N)nn3)CC2)nc(N2CCN(C(=O)Cn3cc(CCCN=C(N)N)nn3)CC2)n1	x	x	x	19.2%	-0.7	6.4	x
O=C(COC(=O)c1ccccc1O)Nc1ncc(Cl)cc1Cl	0.5	7.3%	1.6%	6.1%	u	0.0	-19.3
O=C(Cc1ccccc1[N+](=O)[O-])Nc1ccc2c(c1)OCO2	-0.5	2.0%	1.3%	21.6%	-5.4	-0.2	1.3
CC(C)(C)n1nnnc1CN(Cc1ccco1)Cc1cc2cc3c(cc2[nH]c1=O)OCO3	0.3	28.2µM*	5.8%	-4.1%	-12.1	-6.6	-14.4
COc1ccccc1NC(=O)c1cc(S(=O)(=O)N2CCCC2)cn1C	0.2	-3.9%	0.5%	1.6%	0.9	18.0	13.0
CCC(=O)Nc1ccc(OCC2CCCO2)cc1 (configuration not stated)	x	-0.7%	0.3%	14.0%	3.3	u	x
COc1ccc(OC)c(-c2cc(C(=O)Nc3ccc(F)cc3F)no2)c1	x	-8.8%	2.7%	1.7%	0.8	3.9	x
CCOc1ccc(N(CC(=O)NCCC2=CCCCC2)S(=O)(=O)c2ccccc2)cc1	5.5	x	26.0%	7.7%	-0.5	-2.7	42.7
CCOc1ccc(CNC(=O)CN2C(=O)C(c3ccccc3)Oc3cccnc32)cc1 (configuration not stated)	2.6	-2.3%	-0.7%	2.1%	7.0	10.6	18.8
O=C1C=CC(=C(c2ccc(O)cc2)c2ccc(O)cc2)C=C1	0.8	-0.1%	-0.7%	-30.6%	-1.0	-6.2	-0.2
COc1ccc(C2/C(=C(/O)c3ccc(C)cc3)C(=O)C(=O)N2C)c(OC)c1 (configuration not stated)	-0.7	-0.7%	0.3%	6.0%	-10.9	-5.3	5.7
CN1CCN(C(=O)c2cc(Cl)ccc2Cl)CC1	-0.5	-2.1%	2.0%	22.6%	1.9	14.9	0.0
Cc1ccc(C)c2c1sc(=NC(=O)CN1C(=O)CCC1=O)n2C	-0.9	-3.1%	0.0%	-0.6%	2.4	-6.4	-0.3
C=CCNC(=O)c1cc2c(C(F)(F)F)nn(C)c2s1	1.0	-26.7%	-1.9%	9.3%	1.4	-2.8	1.6
O=C(c1ccc2c(c1)OCO2)N(Cc1ccco1)C1(C(=O)NC2CCCCC2)CCCCC1	3.9	-7.0%	-1.8%	-9.1%	3.4	-25.7	13.8
CCCC(=O)N1CCN(c2nc(CC(C)C)c3c(c2C#N)CCC3)CC1	2.2	-2.6%	0.5%	-12.4%	-0.7	-22.7	28.7
CNC(=S)SCCOc1ccc(C)cc1	3.3	1.2%	-0.5%	9.1%	2.0	1.0	-4.2
COc1ccc2c(c1OC)C(=O)OC2Nc1ccc(S(=O)(=O)N=C(N)N)cc1 (configuration not stated)	0.2	-15.6%	0.6%	3.4%	-0.2	24.8	5.2
CN1CCC(N(C)C(=O)NC2CCCCC2)CC1	0.6	0.7%	2.9%	27.4%	-4.6	-0.6	13.2
COc1ccc(N2CCN(C(=O)C34CCC(C)(C(=O)C3)C4(C)C)CC2)cc1 (configuration not stated)	-1.0	-2.4%	0.1%	0.8%	1.6	14.3	2.0
CCN(CC(=O)Nc1c(F)cccc1F)C(=O)c1ccc(C(=O)c2ccccc2)cc1	0.4	-4.3%	1.2%	x	x	-2.3	-6.3
COc1ccc(C)cc1NC1=C(Cl)C(=O)N(C2CCCCC2)C1=O	-1.2	0.5%	7.6%	-6.9%	-2.5	-10.6	26.7
O=C(Nc1ccc([N+](=O)[O-])cc1)OCCc1ccccn1	1.0	1.6%	4.7%	1.2%	2.0	-0.6	-11.8
C=CSc1sc(Cl)c(N(C)C)c1[N+](=O)[O-]	1.9	x	-1.8%	-7.3%	-1.2	-8.7	-6.5
COc1cccc(N2CCN(C(=O)C3CCN(C(=O)Nc4ccccc4)CC3)CC2)c1	-0.2	-2.1%	0.3%	x	x	x	15.8
COc1ccc(-c2nc3c(C)cc(Br)cn3c2CC2CCCCC2)cc1OC	-0.3	-5.1%	11.5%	x	x	x	x
Cn1c(N)nc2nc(CCc3ccccc3)c(=O)[nH]c2c1=O	4.3	x	6.1%	-3.6%	u	20.4	2.2
CCOC(=O)C1(Cc2ccccc2)CCCN(Cc2cccc(C(C)=O)c2)C1 (configuration not stated)	1.2	x	6.2%	-1.6%	6.0	0.2	1.9
CCCCn1c(CNC(=O)C(C)(C)C)nc2ccccc21	-0.4	1.4%	1.0%	5.7%	4.2	5.5	4.7
COc1ccc2c(C)c(CCC(=O)NCc3ccc(OC)c(OC)c3)c(=O)oc2c1	-1.0	4.4%	0.7%	x	x	x	-5.6
COc1ccc(N2CCN(C(CNC(C)=O)c3ccco3)CC2)cc1 (configuration not stated)	x	-2.5%	0.4%	13.9%	-2.5	-9.1	x
O=C(C1CCCN1S(=O)(=O)c1ccc(Cl)cc1)N1CCOCC1 (configuration not stated)	0.1	-1.5%	-1.2%[38.3 µM]	-20.1%	2.0	x	3.2
COc1cccc(CN2CCSCC2)c1	-0.2	-7.8%	x	-20.4%	1.6	29.6	13.5
CCCn1c(N)c(CC)c(=O)[nH]c1=O	-0.3	x	1.5%	-12.0%	0.9	u	-0.1
Cc1cccn2c(CN3CCSCC3)c(C(=O)N3CCOCC3)nc12	-0.5	-1.9%	0.8%	13.8%	-0.5	7.3	11.0
CC(C)(C)OC(=O)N1CCC(C(=O)Nc2ccc(C(=O)N3CCCC3)cc2)CC1	-0.5	2.3%	0.6%	x	x	x	3.7

In another format: results already given
Value order – TRPML1 ag | ClpP mod | PINK1 expr mod | Sfp inh | Menin MLL FP FL | TRPV1 PAM | TRPML1 blocker
COc1ccc(N2CCN(C(CNC(C)=O)c3ccco3)CC2)cc1 (configuration not stated)
→ x | -2.5% | 0.4% | 13.9% | -2.5 | -9.1 | x
O=C(C1CCCN1S(=O)(=O)c1ccc(Cl)cc1)N1CCOCC1 (configuration not stated)
→ 0.1 | -1.5% | -1.2%[38.3 µM] | -20.1% | 2.0 | x | 3.2

Bioassay records: PubChem, National Center for Advancing Translational Sciences (NCATS)
